# Bioassay records deposited in PubChem by National Center for Advancing Translational Sciences (NCATS).
# hNpr1 antagonist – blocks ANP-stimulated signaling of human Npr1 receptor; P16066; HEK293 hNpr1 GloSensor cGMP, ANP-stimulated luminescence; Potency, µM (series often up to 46.3 µM), inactives show at the highest dose activity change, negative = inhibition, most hits filed as inhibitors; hit rate 1.6% among 76,000; active = well fitted inhibition curve with a large enough effect; inconclusive = small, poorly fitted or top-dose-only effect; inactive = no such curve, though single readings can be large or run the other way;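 also: nearly all actives have a fitted effect of over 60% in size; nearly all hits also lower the signal before the agonist is added; a reference antagonist and vehicle were the controls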
# Target sequence (P16066 whole entry, looked up): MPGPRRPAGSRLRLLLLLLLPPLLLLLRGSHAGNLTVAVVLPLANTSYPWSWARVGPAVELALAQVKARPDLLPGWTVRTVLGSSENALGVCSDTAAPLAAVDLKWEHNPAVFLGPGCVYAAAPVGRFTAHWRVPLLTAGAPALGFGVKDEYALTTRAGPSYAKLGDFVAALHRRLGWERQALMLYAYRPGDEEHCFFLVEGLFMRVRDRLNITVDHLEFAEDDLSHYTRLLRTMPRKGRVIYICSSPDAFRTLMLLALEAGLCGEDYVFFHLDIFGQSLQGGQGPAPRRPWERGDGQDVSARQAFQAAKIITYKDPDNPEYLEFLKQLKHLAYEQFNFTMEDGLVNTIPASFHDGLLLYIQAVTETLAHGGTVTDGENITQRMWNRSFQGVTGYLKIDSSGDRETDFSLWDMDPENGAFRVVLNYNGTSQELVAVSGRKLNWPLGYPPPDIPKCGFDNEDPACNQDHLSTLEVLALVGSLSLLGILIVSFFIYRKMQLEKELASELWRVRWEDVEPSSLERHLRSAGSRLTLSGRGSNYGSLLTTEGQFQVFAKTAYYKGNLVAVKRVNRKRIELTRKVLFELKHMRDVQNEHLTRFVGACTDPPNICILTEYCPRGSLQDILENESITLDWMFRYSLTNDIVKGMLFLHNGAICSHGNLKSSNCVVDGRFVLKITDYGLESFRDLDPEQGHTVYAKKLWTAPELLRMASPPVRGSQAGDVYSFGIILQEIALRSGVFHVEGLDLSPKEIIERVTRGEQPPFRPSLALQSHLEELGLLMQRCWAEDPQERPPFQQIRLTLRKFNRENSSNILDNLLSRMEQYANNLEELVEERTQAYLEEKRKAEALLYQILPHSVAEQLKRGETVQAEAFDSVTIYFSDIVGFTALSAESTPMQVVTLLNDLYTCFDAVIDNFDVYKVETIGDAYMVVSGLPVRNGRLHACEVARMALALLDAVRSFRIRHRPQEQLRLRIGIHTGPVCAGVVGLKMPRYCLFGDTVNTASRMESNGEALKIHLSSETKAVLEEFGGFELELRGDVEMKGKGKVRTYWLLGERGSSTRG
#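 Compound pre-incubated 30 min at room temperature on GloSensor-loaded HEK293 cells stably carrying hNpr1 and the pGS-40F cGMP biosensor. Stimulation uses hNppA at 0.1 nM final; luminescence is taken at baseline and 20 min post-agonist.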
# Starred values were filed as active, the others as inactive; u = inconclusive; & = joins results of further samples; [ ] = remark or other dose. % is scaled to controls: 0 for no effect and ±100 for the full control effect; potency is read from the fitted curve at half-maximal effect. Some of the compounds tested; the hit share may differ from the screen's.
Compound | hNpr1 antagonist
O=C(Nc1ccc(-c2nnc3n2CCCC3)cc1)c1cc(C2CC2)[nH]n1 | -12.8%
COCCN1C(=O)[C@H]2CN(Cc3ccc(OC)c(OC)c3Cl)C[C@H]2C1=O | -13.3%
CC(C)CNC(=O)CC(c1cccc([N+](=O)[O-])c1)c1c[nH]c2ccccc12 (centres undefined) | -15.9%
CCS(=O)(=O)N1CCC2(CC1)c1[nH]c3ccccc3c1CCN2C | -1.3%
CCCCc1ccc(NC(=O)CN2C(=O)NC(c3ccc(C)cc3)C3=C2COC3=O)cc1 (centres undefined) | -14.1%
CCC(=O)Nc1cc2c(cc1OC)C(c1ncnn1CC)CC(=O)N2 (centres undefined) | 1.1%
CCC(=O)N1CCC2(CC1)CC(N(CC)CC)CCO2 (centres undefined) | -4.4%
Cc1cccc(C)c1NC(=O)Cn1nc2n(c1=O)CCCC2 | 0.9%
CCn1cc(CN2CCC(N3C(=O)C4(CCCCC4)C3c3ccncc3)CC2)cn1 (centres undefined) | -0.3%
COc1cc(C(=O)NCc2c[nH]c3ncccc23)nc2ccccc12 | 2.2%
O=C(Cc1ccc(-c2ccccc2)cc1)N1CC(COc2ccccc2)C2(C1)CN(C(=O)c1cn[nH]c1)C2 (centres undefined) | -15.4%
CNC(=O)[C@@H]1CN(Cc2ccccc2C(F)(F)F)C[C@H]1CO | -5.3%
CCn1cc(S(=O)(=O)N2CCC(Oc3ccc(-c4noc(COC)n4)cc3)C2)cn1 (centres undefined) | -5.3%
COc1ccccc1CC(=O)N1CCCc2ncc(C(=O)N3CCN(CCO)CC3)cc21 | -2.7%[70.6 µM]
O=C(COc1ccc(F)c(Cl)c1)N[C@H]1C[C@@H]2OCC[C@H]12 | 5.3%
COCCn1ncc(N2CCC(NC(=O)c3ccccc3OC)CC2)cc1=O | -2.1%
CN(Cc1ccc(F)cc1)C(=O)NC1CCCC1 | -1.8%[70.6 µM]
COCCNC(=O)[C@H]1C[C@H](Oc2ccccc2)CN1Cc1ccc2[nH]ccc2c1 | -3.7%
O=C(NCC1CC1)c1cn(C2CN(C(=O)NCCc3ccccc3)C2)nn1 | 0.5%
Cc1cc(C[C@@H]2COC[C@@H]2NC(=O)Cc2c(C)[nH]c3ccccc23)on1 | -2.3%
CCOc1cc(=O)n2c(c1C(=O)Nc1cc(Cl)ccc1OC)CCCC2 | 0.3%
CCCCCNC(=O)c1ccc(CN2C(=O)NC3(CCS(=O)(=O)CC3)C2=O)cc1 | -4.7%
CC(C)CN1C(=O)c2cccn2CC1C(=O)NCCCN1CCc2ccccc2C1 (centres undefined) | -3.5%
CC(C)CN1CCNC(=O)C1CC(=O)O (centres undefined) | -0.8%
O=C(c1ccnc(-c2ccncc2)c1)N1CCCC1 | -6.2%
CC(C)NC(=O)C1CCN(C(=O)c2ncn3c2COC(c2ccccc2)C3)CC1 (centres undefined) | 0.0%
CN1CCNc2nc(COc3ccc(F)cc3)n(Cc3ccccc3)c2C1=O | -6.5%[70.6 µM]
Cc1cn2nc(C(=O)NCc3ccc(F)cc3F)cc2c(N2CCSCC2)n1 | -18.7%
O=C(NCc1ccccc1)C1CCN(C(=O)c2ncn3c2COC(c2ccc(Cl)cc2)C3)CC1 (centres undefined) | 4.1%
COc1ccccc1CCC(=O)N(C)C1CCc2nn(C)c(=O)n2CC1 (centres undefined) | 5.6%
CCOc1ccc(CCCNC(=O)c2c(C)cc(C)n(C)c2=O)cc1OCC | 7.5%
CN1CCCN(C(=O)c2ccccc2C(F)(F)F)c2ccccc21 | -6.1%
CN(C)C[C@@H]1CN(c2ncccn2)C[C@H]1NS(=O)(=O)Cc1ccc(F)cc1 | 5.0%
CCOc1ccccc1C(=O)NCc1nnc2cc(-c3nc(C(C)C)no3)ccn12 | -24.4%
O=C(NC1CC1)c1ccccc1OC1CN(Cc2ccc(C(F)(F)F)cc2)C1 | 2.8%
Cc1cccc2nc(C(=O)N3CCC(n4cc(C(C)(C)O)nn4)CC3)cn12 | 1.0%
CN(C)C(=O)C1CN(c2cccc(Cl)c2)C(=O)N1 (centres undefined) | 24.9%&23.6%[70.6 µM]
CCn1cc(S(=O)(=O)N2CCn3c(nn(CC4CC4)c3=O)C2)cn1 | -0.6%
COc1cccc(CCC(=O)N2CCc3nn(CC4CC4)c(=O)n3CC2)c1 | -1.0%
CC(c1ccon1)N(C)C(=O)c1cc(CN2CCC(Cc3ccccc3)CC2)on1 (centres undefined) | 2.1%
CC(=O)Nc1ccc(NC(=O)C2CC(=O)N(c3n[nH]c4cccc(F)c34)C2)cc1 (centres undefined) | -2.9%
COCCOCC(=O)N1CCCN(Cc2ccncc2)C(c2ccccc2)CC(=O)NCC1 (centres undefined) | 6.8%
Cc1ccc(-c2ncc(C(=O)O)c(-c3ccncc3)n2)cc1 | 1.9%
COc1ccc(-c2nc(C)nc3c2CN(C(=O)c2ccc(C)cc2)CC3)cc1 | 0.6%
COc1cccc(CCC(=O)Nc2ccc3ncnc(N4CCCC4)c3c2)c1 | 2.5%
Cc1ccc(CN2CCCOCCNC(=O)CC2)o1 | -1.4%
O=C(CN1CCOC1=O)N1CCn2nc(C(O)Cc3ccccc3)cc2C1 (centres undefined) | -3.4%
O=C(NC1CCN(c2cc(-c3ccccc3)[nH]n2)CC1)c1ccc(F)c(Cl)c1 | -23.4%

# (listing goes on)
SMILES | hNpr1 antagonist
Cc1oc(C(O)c2ccccc2F)nc1C(=O)Nc1ccc(C(=O)Nc2ccccc2)cc1 (centres undefined) | u
O=S(=O)(Cc1ccccc1)NC[C@H]1Cn2cc(-c3ccccc3)nc2CO1 | 4.8%[70.6 µM]
CCN(CC)c1cc(CCC(=O)NCCN2CCCCCC2)ccn1 | -1.9%
CC(C)C[C@@H]1N[C@H](C(=O)N2CCN(c3ncccn3)CC2)Cc2c[nH]c3cccc1c23 | -1.0%[70.6 µM]
CC1(COCC2CC2)COc2ccc(C(=O)Nc3ccc(Cl)cc3)cc2N1 (centres undefined) | u
CS(=O)(=O)N1CCCCC1CCNc1nccc(-c2cccnc2)n1 (centres undefined) | 4.4%
COc1ccccc1-c1nc2nccc(-c3cc(OC)c(OC)c(OC)c3)n2n1 | -10.0%
O=C(NCCc1ccccn1)c1nc(-c2ccccc2)cc2[nH]ccc12 | -21.9%[70.6 µM]
CCn1c(=O)c2c(cc(C)n2C)n(CC(=O)Nc2ccc(OC)c(Cl)c2)c1=O | -4.8%
CCOC(=O)c1sc(NC(=O)C[C@H]2NC(=O)c3ccccc3NC2=O)nc1C | -11.7%
N#Cc1ccc(C(=O)N2C[C@@H](CO)[C@H](c3ccccn3)C2)cc1 | -16.4%
CN1[C@@H](CCC(=O)NCc2ccco2)CNC(=O)[C@@H]2[C@H]1CCN2Cc1ccc(C(=O)O)cc1 | 0.9%
C=CCc1ccccc1OCCN(C)Cc1ccccc1C(=O)O | -4.5%
Cc1csc(NC(=O)C2CC(=O)N(c3n[nH]c4ccccc34)C2)n1 (centres undefined) | -0.5%
COC(=O)[C@@H]1Cc2ncn(C)c2CN1C(=O)CC(C)(C)C | 4.1%[70.6 µM]
CC(C)C(=O)Nc1ccc(C2(C(=O)NCc3cccs3)CCCCC2)cc1 | 5.7%
COC[C@H]1CCCN1C(=O)C[C@@H]1O[C@H](CNC(=O)C2CC2)[C@@H](O)[C@H]1O | 2.1%[70.6 µM]
CC(=O)c1ccc(NC(=O)N2Cc3[nH]cnc3C[C@H]2c2nc(-c3ccccc3)no2)cc1 | -2.1%[70.6 µM]
CC(C)c1noc(C2CCCN(S(=O)(=O)c3ccccc3)CCC(=O)NCC2)n1 (centres undefined) | -2.1%
Cc1cnc(-c2cccnc2)n1C1CCCN(C(=O)C2(c3ccccc3)CC2)C1 (centres undefined) | -10.6%
Cc1ncc(CC(=O)NCc2ccc3[nH]c(-c4ccccc4F)c(C)c3c2)c(=O)[nH]1 | 0.0%
O=C(C1CCCC1)N1CCC(c2noc(CO)n2)C1 (centres undefined) | 6.5%
O=S(=O)(Cc1ccccc1)N1CCC(c2noc(-c3ccncc3)n2)C1 (centres undefined) | -2.7%
Cc1cc(C)cc(C(=O)NCCn2ccn3nc(-c4ccc(C)cc4C)cc3c2=O)c1 | -22.1%
COc1nc2c(cc1CNC(=O)c1ccc(F)cc1)C(=O)N(C1CCCC1)C2 | -4.0%
CN(CCc1ccccn1)C(=O)CCC[C@@H]1[C@H]2CCCN3CCC[C@@H](CN1C)[C@@H]23 | 4.7%
O=C(c1cccc(F)c1)N1CCC2(CC1)NC(=O)N(c1ccccc1Cl)N2 | -6.6%
Cc1noc(C2CC3(CCN(C(=O)Cn4nc(C(F)(F)F)cc4C)CC3)CN2C)n1 (centres undefined) | 0.6%
CN(C)CCNC(=O)c1nc2nc(-c3ccccc3)c(Cl)cc2n1C | -0.9%[70.6 µM]
OC1(CN2CCCN(c3nc4ccccc4s3)CC2)CNCCOC1 (centres undefined) | 1.6%
Cc1nc(-c2ccccc2)n(CC(=O)Nc2cc(C(F)(F)F)ccc2Cl)c(=O)c1CCO | -10.7%
CCc1ccc(C(=O)NC2CCN(c3cc(-c4ccc(F)cc4)[nH]n3)C2)cc1 (centres undefined) | -14.7%
N#Cc1cccc(S(=O)(=O)Nc2cccn3ncnc23)c1 | 1.5%
COc1ccc(NC(=O)C[C@@H]2C[C@@H](C(C)C)[C@H](CC#N)C=C2C)cn1 | -0.6%[70.6 µM]
CN(Cc1cccnc1)C(=O)c1n[nH]c2c1CN(Cc1cccnc1)CC2 | 1.1%
COCC(=O)NC1CCC12CCN(C(=O)CC1CCCCC1)CC2 (centres undefined) | 0.9%
Cc1c(C(=O)N2CCCC(CCc3ccc(F)cc3)C2)cnc2cc(=O)[nH]n12 (centres undefined) | 3.7%
COC1CCOC2(CCN(C(=O)c3nn(C)c4ccccc34)CC2)C1 (centres undefined) | 5.3%
CC(C)c1cc(CN(C)Cc2cn[nH]c2-c2ccc(F)cc2)no1 | -2.8%
O=C(c1ccco1)N1CCCC(Cc2nc(C3CCOCC3)no2)C1 (centres undefined) | -6.3%
CCc1cc(C(=O)N2CCC(n3nccc3NC(=O)CCOc3ccccc3)CC2)no1 | 1.1%
CC1(CCCCc2ccccc2)COc2ccc(C(=O)NCc3cccnc3)cc2N1 (centres undefined) | -20.0%[70.6 µM]
O=C(NCc1ccccc1)[C@H]1CN(Cc2ccccc2)C[C@H]1C(=O)O | 11.2%
Cc1cccc(OCC2(CNC(=O)c3cnccn3)C[C@@H](O)[C@@H](O)C2)n1 (some centres undefined) | 8.3%[70.6 µM]
O=C(NCC1CCOCC1)Nc1ccccc1Br | 3.4%
CN1[C@@H](CCC(=O)NCc2ccco2)CNC(=O)[C@@H]2[C@H]1CCN2Cc1cccc(Cl)c1 | -2.4%
CC1=NS(=O)(=O)N(Cc2ccccc2)C=C1C(=O)OCc1nc(Cc2ccc(C)cc2)no1 | 0.6%
CC1=C[C@@H](CN2CCN(c3ccccn3)CC2)[C@H](C(C)C)C[C@H]1Cc1nnc(-c2ccc([N+](=O)[O-])cc2)o1 | 1.9%
CN1CCCN(C(=O)c2cccs2)c2ccccc21 | 1.1%
COc1cccc(C(=O)N2CCc3onc(-c4cccc(F)c4)c3C2)c1OC | 10µM*
Cc1noc([C@@H]2CN(C(=O)NCc3ccccc3)C[C@H]2C(N)=O)n1 | 1.6%
COc1cccc(CC(=O)N2CCCn3nc(C)c(-c4ccccc4OCc4ccccc4)c32)c1 | u
NC(=O)c1cccnc1OC1CCN(Cc2ccc[nH]2)CC1 | -0.5%
Cc1ccc(C(=O)N[C@@H]2C=C(C(=O)N[C@@H](CCS(C)(=O)=O)C(N)=O)C[C@@H](O)[C@@H]2O)cc1 | 1.7%
CC(=O)NC1CCN(c2nc(-c3cccnc3)nc3c2cnn3C)C1 (centres undefined) | -1.7%
CSCCNC(=O)c1coc(CN2CCN(C/C=C/c3ccccc3)CC2)n1 | 0.5%
COC(=O)C1=C(C)N=C2SC=C(CC(=O)NCC3CCCO3)N2C1c1ccccc1C (centres undefined) | -24.5%
O=C1CCC2(CCNCC2)CCN1 | -14.6%
Cc1ccc(C(=O)N2CCCC(n3cc(-c4nc(C(C)C)no4)nn3)C2)cc1C (centres undefined) | -6.4%
Cc1noc(C)c1[S+](=O)([O-])N1CCC2(CC1)CC(=O)c1ccccc1O2 | -14.9%

# Later entries:
SMILES | hNpr1 antagonist
Cc1cc(=O)n(CC(=O)NCc2ccccc2Br)c(N2CCc3ccccc3C2)n1 | -5.7%
COc1cccc(CCNC(=O)c2c(C)noc2-c2ccccc2OC)c1 | -15.3%
COc1ccc(CCc2nc3nccc(-c4ccsc4)n3n2)cc1 | 3.8%
COC(=O)CNC(=O)N1CCC(Cc2noc(-c3ccncc3)n2)C1 (centres undefined) | 2.2%
Cc1noc(C)c1Cc1ccc(C(=O)N2CCC(C)(c3noc(-c4ccccn4)n3)CC2)o1 | -29.6%
O=C(O)c1ccc(CC2CCN(C(=O)c3cccc(Cn4cccn4)c3)C2)cc1 (centres undefined) | 3.6%
